High-throughput results (PubChem BioAssay)
LANA-nucl inh – inhibitors of KSHV LANA binding to nucleosomes | AID 720717 | FITC-LANA1-23 / chicken nucleosome fluorescence polarization; hits give low values | z-score (test concentration not listed) | 0.3% of 51,000 active;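 active = both repeat wells score below -2 in polarization z-score versus plate sample wells, excluding overly bright wells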;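 also: 100 nL library stock added to about 30 µL; numbers are from one replicate; some results filed as inactive read as strong as hits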
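System – purified chicken nucleosomes with FITC-labelled LANA N-terminal peptide (1-23) · Amount – 240 nM purified chicken nucleosomes (480 nM peptide binding sites), final · Also added – 50 nM FITC-LANA1-23 probe · Medium – TEN-BT buffer, pH 7.5 · Incubation – compound with peptide–nucleosome mix 10–45 min at room temperature · Detection – fluorescence polarization, ex 480 nm, em 535 nm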
Ab BasE inh – inhibitors of Acinetobacter baumannii siderophore enzyme BasE; inhibition, % (test concentration not listed); 0.1% of 84,000 active; purified BasE, fluorescence polarization binding displacement;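 active = both replicates above 25% with normal brightness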;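 also: 0% = negative plate control signal and 100% = positive plate control signal; stock transfer was 100 nL into about 30 µL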
An asterisk follows results filed as active; · = no result given; & = joins results of further samples.

Fields – LANA-nucl inh	Ab BasE inh
> CCOC(=O)c1noc2ncnc(NC(C)C)c12
    0.675	1.9
> Cc1cc(O)c(C=Nc2ccccc2C(F)(F)F)c(=O)o1
    ·	-2.0
> CCn1cc(C2=NOC(C(=O)N3CCCC3)C2)c(C)n1 (configuration not stated)
    -0.923	0.5
> CCN(CCO)CCCC(C)Nc1ccnc2cc(Cl)ccc12 (configuration not stated)
    0.705&-0.633	-1.6
> CC(Sc1nc2cc(Cl)ccc2s1)C(N)=O (configuration not stated)
    ·	-2.8
> O=C(CSc1ncn[nH]1)N(C1CCCCC1)C1CCCCC1
    -0.682	-0.8
> CC(C)(C)NC(=O)CSc1nc2ccccc2c(=O)[nH]1
    -2.38	2.3
> CCOC(=O)c1oc2ccccc2c1NC(=O)CN1CCOCC1
    -0.0735	-0.2
> COc1ccc(C(=O)OCC(N)=O)cc1OC
    ·	0.2
> CC1CC(C)CN(S(=O)(=O)c2ccc(/C(O)=C(\C#N)c3nc4ccccc4s3)cc2)C1 (configuration not stated)
    -0.468	2.3
> O=C1/C(=C/c2ccccc2)Nc2ccccc21
    -7.96	15.3
> CCOC(=O)/C(C)=N/Nc1ccc(F)cc1
    0.132	0.0
> CN(C)c1ccc(/C=C2\CCCC3C2=NN(C(=O)c2ccco2)C3c2ccc(N(C)C)cc2)cc1 (configuration not stated)
    0.562	-3.4
> C=CCn1c(SCC(=O)NC(=O)C2COc3ccccc3O2)nnc1-c1ccccc1 (configuration not stated)
    ·	-0.9
> CC(=O)NCCCCCCNC(C)=O
    0.117	·

4 compounds from above, ordered by the number in LANA-nucl inh, rising.
molecule | LANA-nucl inh
CCn1cc(C2=NOC(C(=O)N3CCCC3)C2)c(C)n1 (configuration not stated) | -0.923
CC(=O)NCCCCCCNC(C)=O | 0.117
CCOC(=O)/C(C)=N/Nc1ccc(F)cc1 | 0.132
CN(C)c1ccc(/C=C2\CCCC3C2=NN(C(=O)c2ccco2)C3c2ccc(N(C)C)cc2)cc1 (configuration not stated) | 0.562

One compound at a time, from the list above. Screens in order: LANA-nucl inh	Ab BasE inh
CC(=O)NCCCCCCNC(C)=O reads 0.117	·
Cc1cc(O)c(C=Nc2ccccc2C(F)(F)F)c(=O)o1 reads ·	-2.0
CCOC(=O)/C(C)=N/Nc1ccc(F)cc1 reads 0.132	0.0
CCN(CCO)CCCC(C)Nc1ccnc2cc(Cl)ccc12 (configuration not stated) reads 0.705&-0.633	-1.6
CCOC(=O)c1oc2ccccc2c1NC(=O)CN1CCOCC1 reads -0.0735	-0.2

The list continues:
Fields – LANA-nucl inh	Ab BasE inh
> CCN1CCCC1CNS(=O)(=O)c1ccc(F)cc1F (configuration not stated)
    ·	-2.8
> Cc1ccc(OCC(=O)n2c(SCc3ccc(F)cc3)nc3ccccc32)cc1
    ·	1.9
> O=C(Nc1cccc(-c2ccc(N3CCCC3)nn2)c1)c1ccccc1
    1.16	-2.6
> CC(C)C(O)(C#CCN1CCOCC1)C(C)C
    -0.88	1.6
> CCC1C(=O)C(C)(C)C(=O)OC1c1ccc(Cl)cc1 (configuration not stated)
    -0.411	0.3
> COc1ccccc1CN(Cc1cccs1)C(=O)C1CCCN1C(=O)c1cccs1 (configuration not stated)
    ·	1.2
> Cc1ccc(-c2onc3ccc(Br)cc23)cc1
    2.6	0.7
> CNC(=S)N(CCO)Cc1cc2cc3c(cc2[nH]c1=O)OCCO3
    -1.21	1.6
> COC(=O)c1c(C)c(=O)[nH]c2ccccc12
    ·	0.7
> CCOc1cc(C2=NS(=O)(=O)c3ccccc3N2)cc(OCC)c1OCC
    0.422	-1.3
> CN(C)CCNC(=O)c1ccc2c(c1)OCO2
    0.237	1.3
> O=C(CCN1C(=O)c2ccccc2C1=O)NCc1ccco1
    ·	0.4
> COc1ccc(NC(=O)CC2SC(=Nc3ccccc3)N(c3ccccc3)C2=O)cc1 (configuration not stated)
    ·	-1.9
> O=S(=O)(c1ccc(Cl)cc1)N(Cc1ccco1)CC(O)Cn1c2ccccc2c2ccccc21 (configuration not stated)
    0.832	-0.7
> CC(=O)Nc1nc(C2COc3ccccc3O2)cs1 (configuration not stated)
    -0.231	-0.6
> Cc1cc(SCC(=O)NC2CCS(=O)(=O)C2)nc2ccccc12 (configuration not stated)
    ·	-2.2
> COC(=O)c1ccc(S(=O)(=O)NC(C)(C)C)n1C
    ·	0.0
> CN(C)c1ccc2cccc(O)c2n1
    -0.208	0.1
> CN(C)c1ccc(Nc2nc(-c3ccccc3)c(C(=O)c3ccc(F)cc3)s2)cc1
    -0.451	·
> Cc1ccc2nc(COC(=O)C3CCN(c4ccc(C(F)(F)F)cn4)CC3)cc(=O)n2c1
    ·	1.0
> c1ccc(-c2nc(Cc3nc4ccccc4[nH]3)no2)cc1
    0.799	-1.6
> O=C(O)/C=C1\SC(=O)N(Cc2ccccc2)C1=O
    -0.817	2.3
> Cc1c(C(=O)N2CCN(c3ccccc3)CC2)sc2nc[nH]c(=O)c12
    -0.666	-0.6
> Cc1cccc(OCc2nn[nH]n2)c1C
    -0.789	0.1
> CCOc1ccc(-n2nc3cc(C)c(NC(=O)c4ccc(Br)o4)cc3n2)cc1
    -1.36	2.2
> CCN(c1ccccc1)S(=O)(=O)c1ccc2[nH]cc(C(=O)NCCOC)c(=O)c2c1
    -0.265	1.6
> O=C(Cn1nc(-c2ccccc2)c2ccccc2c1=O)NCCO
    0.0015	0.5
> CCOC(=O)CSc1nc2ccc(Br)cc2c(=O)n1C
    -0.591	0.8
> Cc1cc(C)c2nc(NC(=O)c3ccc(C#N)cc3)sc2c1
    ·	3.7
> NCCCc1ccccc1Cl
    0.301	-38.5
> CC(C)C(=O)Nc1ccc(C(=O)O)cc1
    0.571	-1.4
> O=C1CC(c2ccc(F)cc2)CC(O)=C1C=NCCN1CCNCC1 (configuration not stated)
    ·	-0.7
> NC(=O)c1ccccc1OCc1nnc(-c2ccccc2Br)o1
    ·	-4.6
> CCCNc1ccccc1OCC
    -0.0605	0.9
> Cc1ccc(CNS(=O)(=O)c2ccc3oc(=O)c4ncn(C)c4c3c2)cc1
    -0.935	-9.7
> O=C(Oc1ccc(N(Cc2ccco2)C2=NS(=O)(=O)c3ccccc32)cc1)c1ccco1
    0.838	1.4
> Cc1ccc(NC(=S)Nc2cccnc2)c(S(=O)(=O)N2CCOCC2)c1
    ·	-0.7
> O=C(/C=C/c1ccccc1)Nc1cc2c(ccc3ccccc32)oc1=O
    ·	-2.4
> CC(=O)OC(C(=O)NCc1ccco1)c1ccncc1 (configuration not stated)
    0.24	-1.5
> CC(Sc1nnc(COc2ccccc2)n1C)C(=O)Nc1nccs1 (configuration not stated)
    0.617	0.2
> CC(C)(C)P(=NC(=S)NCc1ccccc1)(N1CCOCC1)N1CCOCC1
    ·	2.1
> O=C1CCCc2cc(S(=O)(=O)N3CCCC3=O)ccc2N1
    2.62	-1.7
> O=C(CSc1cc(C(F)(F)F)c2cc3c(cc2n1)OCO3)NCCN1CCOCC1
    -0.166	1.1
> Cc1cc(C(F)F)n2nc(C(=O)Nc3ccc(C)c(C)c3)nc2n1
    0.131	-0.5
> CC(C)CC(=O)NC1(C(F)(F)F)NC(=O)N(CC(C)C)C1=O (configuration not stated)
    -0.107	-1.4
> NC(=O)CSc1nnc(Cc2cccs2)n1C1CCCCC1
    ·	1.2
> Nc1ccc(CCC(=O)NC2CC2)cc1
    0.185	1.4
> Cc1cc(C)c(OCCn2ccnc2)c(C)c1
    3.18	-4.0
> Cc1nccn1Cc1ccc(C(=O)O)cc1
    -0.143	1.1
> COc1cc2c(cc1OC)CN(C(C)C(=O)Nc1cccc(C#N)c1)CC2 (configuration not stated)
    ·	-1.6
> CC(C)(C)c1cc(NC(=O)COC(=O)c2ccc(Br)o2)n(-c2ccccc2)n1
    ·	3.2
> Cc1ccc(NC(=O)Cn2cc(/C=C3/NC(=O)NC3=O)c3ccccc32)cc1
    ·	0.1
> COc1ccc(CN2C(=O)CN(C)C2=S)cc1
    ·	2.5
> O=C(COn1nnc2ccc(Cl)cc21)NCc1ccco1
    ·	-2.4
> c1coc(-c2cc(-c3nc4ccccc4s3)c3ccccc3n2)c1
    ·	0.4
> O=C(Cc1cccc(C(F)(F)F)c1)Nc1ccccc1
    ·	0.4
> O=C(O)C1CCN(C(=O)CSc2ncc(C(F)(F)F)cc2Cl)CC1
    ·	0.2
> CC(C)(C)c1nnc2sc(COc3ccc(Br)cc3)nn12
    0.639	-0.6
> O=C(O)c1cccc2cc[nH]c12
    -0.06	-0.2
> CCN(CC)c1ccc(NC(=O)CN(C)Cc2cccs2)cc1
    ·	0.4

Following part.
Fields – LANA-nucl inh	Ab BasE inh
> O=C(COC(=O)c1ccc2ccccc2n1)NC1CCCC1
    ·	4.6
> c1nc(Nc2ccc3c(c2)OCO3)c2c3c(sc2n1)CCC3
    ·	2.2
> COCc1nnc(NC(=O)C2CCN(C(=O)c3ccco3)CC2)s1
    -0.922	0.6
> CCOC(=O)C1CCCN(c2c3c(nc4cc(-c5ccc(C)cc5)nn24)CCC3)C1 (configuration not stated)
    -0.104	-2.4
> Cn1c(=O)n(C)c2cc(NC(=O)C3COc4ccccc4O3)ccc21 (configuration not stated)
    -0.111	-1.4
> O=C(Cc1cccc(C(F)(F)F)c1)OCN1C(=O)c2ccccc2C1=O
    ·	1.6
> CCOC(=O)C1CCN(C(C)C(=O)Nc2ccc(C(C)C)cc2)CC1 (configuration not stated)
    ·	0.1
> CCOC(=O)N1CCN(C(=O)CCn2c(=S)[nH]c3cc(OCC)c(OCC)cc3c2=O)CC1
    -0.037	-2.6
> O=C(OCc1nc2ccccc2s1)c1cccc(-n2cnnn2)c1
    ·	1.3
> O=C(OCc1c(Cl)nc2sccn12)c1cc2c(s1)CCCC2
    ·	1.6
> CN(Cc1nc(-c2ccccc2)no1)C(=O)Nc1ccccc1
    -0.0505	-2.7
> CC(C)NS(=O)(=O)NC(C)C
    -0.271	0.1
> C=CCn1cnc2c(c1=O)c1nc3ccccc3nc1n2CCC1=CCCCC1
    ·	-0.6
> O=C(CN1CCN(S(=O)(=O)c2ccc3c(c2)OCCCO3)CC1)N1CCCc2ccccc21
    ·	1.1
> O=c1c2cc3c(=O)n(-c4ccccn4)c(=O)c3cc2c(=O)n1-c1ccccn1
    0.123	-1.2
> NC1=C(c2nc3ccccc3s2)CC(c2ccccc2)O1 (configuration not stated)
    ·	-1.7
> COC(=O)C1=NOC2C(=O)N(c3ccc(C)cc3)C(=O)C12 (configuration not stated)
    -0.893	2.0
> COc1ccc(N(Cc2nc3ccccc3s2)S(=O)(=O)c2cccs2)cc1
    ·	0.0
> O=C1OCCC1Sc1ncc(C(F)(F)F)cc1Cl (configuration not stated)
    ·	-0.7
> CC1(C)CC(=O)C(C=NC(Cc2ccccc2)C(=O)O)=C(O)C1 (configuration not stated)
    ·	1.6
> O=C(NC1=NCCS1)C1CCN(S(=O)(=O)c2ccc3c(c2)OCCCO3)CC1
    ·	-1.2
> O=C(c1ccco1)N1CCN(C(=O)C2CCCO2)CC1 (configuration not stated)
    -0.218	0.8
> CN(c1cccc(NS(C)(=O)=O)c1)S(C)(=O)=O
    -0.419	-3.5
> O=C(/C=N/O)NCCN1CCCCC1
    -1.16	2.1
> Cc1nc(S/C(=C/c2ccc(-c3ccc(Cl)cc3)o2)C(=O)O)n[nH]1
    ·	-2.1
> N#Cc1ccc(C2C3=C(CCCC3=O)NC3=C2C(=O)CCC3)cc1
    0.106	-0.1
> CC(C)c1ccc(Nc2nn3c(=O)c4ccccc4nc3s2)cc1
    -0.639	-0.1
> CCCN(C(=O)[C@H]1[C@@H]2C[C@@H]3[C@H]1C(=O)O[C@@H]3C2)c1ccccc1F
    -0.75	0.6
> COc1cccc(NC(=O)NC(C)(C)C)c1
    0.531	-0.1
> O=c1[nH]cnc2c1sc(=S)n2-c1ccccc1
    ·	0.8
> CC1CC(C)(C)NC(=S)N1CC(=O)N1CCN(c2ccc(F)cc2)CC1 (configuration not stated)
    -1.24	2.9
> N#C/C(=C/c1ccc(-c2ccc(S(N)(=O)=O)cc2)o1)C(=O)Nc1cc(Cl)ccc1Cl
    -5.68*	29.9
> Cc1nc2ccccc2nc1CSc1nncs1
    ·	1.6
> CC(C)(CO)N1Cc2ccccc2C1=O
    0.649	·
> CCOC(=O)C1C(=O)C=C(c2ccco2)CC1c1ccc(OC)cc1 (configuration not stated)
    0.338	2.7
> CCOc1ccc(Br)cc1C=Nc1ccc2c(c1)OCO2
    ·	1.1
> CC(Oc1ccccc1C(C)C)C(=O)O (configuration not stated)
    -0.185	3.7
> Cc1nc(SCC(=O)Nc2c(C)nn(C)c2C)c2cnn(-c3ccccc3)c2n1
    -0.0805	4.4
> O=C(CCCc1c[nH]c2ccccc12)Nc1ccccc1N1CCOCC1
    ·	-0.7
> CC(C)(C)NC(=S)Nc1cc(C(F)(F)F)cc(C(F)(F)F)c1
    ·	-5.6
> Cc1cc(NC(=O)C(F)(F)C2(F)OC(F)(F)C(F)(F)C2(F)F)no1 (configuration not stated)
    ·	2.6
> O=C(Nc1cc2ccccc2s1)NC1Cc2ccccc2C1
    ·	2.1
> Cc1ccccc1NC(=O)CSc1ncn[nH]1
    ·	2.3
> COc1ccc(N2CCN(C(=O)CN3CCN(S(=O)(=O)c4ccc(C(C)(C)C)cc4)CC3)CC2)cc1
    ·	0.4
> Cc1ccc(OCNC(=O)N2CCOCC2)cc1
    -0.74	7.4
> CC1CCCCN1c1ncccc1C(=O)NC1CCCC1 (configuration not stated)
    -0.0545	1.2
> COC(=O)c1ccc(/C=N\NC(=O)CNc2ccc(C)cc2)cc1
    -0.035	3.0

An excerpt (hit frequency here may not be typical).
